Screens (PubChem)
Mtb betalactam – beta-lactam sensitization of Mtb H37Rv, H37Rv; hit rate 0.27% among 330,000; M. tuberculosis H37Rv growth with meropenem, percent inhibition; hits of this screen are not shown here; inhibition, % at 25 µM; AID 434955, 2010;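 active = about 74% or more and at least 40 points above the plate without the antibiotic, then above 30% in a dose series; inconclusive = first-round hits that could not be retested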;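 note: growth measured after seven days incubation then overnight dye step; 0% = bacteria only wells and 100% = bacteria with antibiotic; twin plates without the antibiotic show which effects depend on it; some results filed as inactive read as strong as hits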
YopH PTP inh – YopH tyrosine phosphatase inhibitors, primary screen, biochemical, fluorescence Ex485/Em525 | inhibition, %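 (about 10 µM by stock and volumes)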 | hit rate 0.16% among 140,000 | YopH tyrosine phosphatase [Yersinia enterocolitica];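 active = inhibition of 50% or more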;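 note: controls were vehicle for no effect and minimum signal wells for full effect; inactives centre near -20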
RecA splice inh – Mtb RecA intein splicing inhibitors, primary screen, biochemical, fluorescence, HTS. Protein RecA (Mycobacterium tuberculosis (strain ATCC 25618 / H37Rv)), P9WHJ3. inhibition, %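 (about 9 µM by stock and volumes)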. hit rate 0.75% among 290,000. cell-free RecA intein splicing; in the data active = inhibition above about 30%; inconclusive = no clear call, values can overlap the other calls;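 note: 0% = vehicle wells and 100% = reference inhibitor control wells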
Target sequence (P9WHJ3 whole entry, looked up, canonical isoform): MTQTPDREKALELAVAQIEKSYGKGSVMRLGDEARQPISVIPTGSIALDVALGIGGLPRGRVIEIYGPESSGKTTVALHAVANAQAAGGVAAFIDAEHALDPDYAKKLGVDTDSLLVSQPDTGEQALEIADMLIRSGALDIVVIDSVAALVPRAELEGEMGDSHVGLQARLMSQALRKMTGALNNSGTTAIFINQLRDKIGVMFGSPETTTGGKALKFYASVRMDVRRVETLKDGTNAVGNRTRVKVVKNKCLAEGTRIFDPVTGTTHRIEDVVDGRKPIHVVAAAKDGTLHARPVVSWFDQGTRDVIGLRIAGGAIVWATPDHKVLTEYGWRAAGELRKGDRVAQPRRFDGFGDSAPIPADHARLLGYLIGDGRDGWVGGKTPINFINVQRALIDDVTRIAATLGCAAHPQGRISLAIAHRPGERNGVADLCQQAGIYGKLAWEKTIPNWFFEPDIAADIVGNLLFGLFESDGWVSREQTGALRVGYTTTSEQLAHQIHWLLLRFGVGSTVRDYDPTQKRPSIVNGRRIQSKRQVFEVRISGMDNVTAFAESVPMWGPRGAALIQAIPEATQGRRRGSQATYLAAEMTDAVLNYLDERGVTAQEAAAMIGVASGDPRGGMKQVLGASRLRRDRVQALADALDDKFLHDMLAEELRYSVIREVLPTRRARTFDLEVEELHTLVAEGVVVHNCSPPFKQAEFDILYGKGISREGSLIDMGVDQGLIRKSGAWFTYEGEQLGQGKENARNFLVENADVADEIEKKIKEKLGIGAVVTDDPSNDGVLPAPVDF
Arbovirus inh – antivirals against arbovirus infection, primary screen, cell-based, full library, 10K replicate subset. inhibition, % at 10 µM. arbovirus infection cell-based antiviral screen. AID 1251, 2008. hit rate 0.37% among 200,000;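 active = inhibition from about 30%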;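 note: bluetongue infection of BSR cells; cell survival read as ATP light after 72 h; 0% = infected wells without compound and 100% = uninfected wells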
Mtb growth – M. tuberculosis H37Rv growth inhibitors, H37Rv strain (AID 1626); inhibition, % at 10 µM, or IC50 in µM where a hit was titrated; hit rate 0.95% among 220,000; M. tuberculosis H37Rv growth inhibition; higher % means a stronger effect;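 active = confirmed in a dose series; inconclusive = inhibition above 80% but not taken into the dose series; inactive = below 80% or under 30% at every dose of the series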;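 note: bacteria incubated seven days before Alamar blue readout; 0% = bacteria only wells and 100% = bacteria with antibiotic wells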
Arbovirus inh repeat – second read-out of Arbovirus inh, no call of its own (marks repeat the call); inhibition, %; measured here: 10K subset replicate screen; many hits read low in the repeat;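 first of two repeat runs on a subset; 0% = infected and 100% = uninfected wells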
Active calls of the source: *; ? = inconclusive; . = not tested or not shown. The list is partial; rates above refer to the full screens.

SMILES	Mtb betalactam	YopH PTP inh	RecA splice inh	Arbovirus inh	Mtb growth	others
Cn1cc(C(=O)N2CCc3ccccc3C2)c(=O)c2cc(S(=O)(=O)N3CCOCC3)ccc21	-4	.	-0.4	19	1%
Cn1c(-c2cc(Br)ccc2O)n[nH]c1=S	-2	-36	-0.9	7	-5%
C/C(=N\N=C(N)N)c1cccc([N+](=O)[O-])c1	-3	-40	2.3	3	-7%
CN(Cc1c(F)cccc1Cl)C(=O)c1cnc2ccccc2n1	1	.	8.9	.	.
CC(=O)N(c1nc(CCl)cs1)c1cccc(C)c1C	-6	.	1.9	5	-6%
CN(Cc1ccccc1)S(=O)(=O)c1ccc(Cl)c(C(=O)O)c1	-8	.	0.8	9	-1%
C/C(=N\NC(=O)CC1N=C(Cc2ccccc2)NNC1=O)c1ccncc1 (stereo not drawn)	-5	.	0.3	.	-9%
CCOc1ccc(/C(O)=C2/C(=O)C(=O)N(CC3CCCO3)C2c2ccc(C)o2)cc1 (stereo not drawn)	8	-26	-1.5	3	-12%
COc1cc(C(=O)N(Cc2ccc(N(C)C)cc2)C2CCS(=O)(=O)C2)cc(OC)c1OC (stereo not drawn)	-19	-55	0.7	-2	.
CCCCOc1ccc(C(=O)N=c2sccn2C)cc1OC	1	.	1.7	.	.
O=C(O)c1ccc(S(=O)(=O)N2CCc3ccccc3C2)cc1	-21	.	0.9	.	.
CCCc1nn(-c2cc(Cl)ccc2OC)c2c1C(=O)CC(C)(C)C2	3	-45	6.9	-23	9%
COc1ccc(CCNC(=O)C2CC2)cc1	-11	.	2.0	.	.
COc1ccc(CNC(=O)C2(CC3CC(c4ccccc4)=NO3)CCN(C(=O)OC(C)(C)C)CC2)cc1 (stereo not drawn)	37	.	2.7	.	4%
O=C(c1ccccc1Oc1ccccc1)N1CCN(c2ccccc2F)CC1	0	-8	6.5	5	2%
Cc1occc1C(=O)Nc1ccc(Br)cc1F	-5	-8	-0.9	-4	-7%
CCCCn1c(=O)n(CC(=O)NCc2ccc(C)cc2)c(=O)c2c1nc(CO)n2CCC	-10	-44	1.3	-2	-8%
COC(C/C=C/C(=O)[C@@H](C)OCc1ccccc1)OC	92	.	-1.4	.	-1%
COc1ccccc1CNCC(=O)Nc1ccc(N(C)C)cc1	-4	.	-2.5	.	.
CCC(NC(=O)C1CCC1)c1ccccc1 (stereo not drawn)	-2	-4	4.3	6	7%
CCOc1ccccc1C(=O)NCC(=O)NCCCSc1ccccc1	0	.	0.0	.	.
COc1cc(OC)c(C(=O)NC2CCCc3ccccc32)cc1OC (stereo not drawn)	9	.	-3.7	.	.
CCC(=O)NNC(=O)CSc1nnc(-c2ccccc2)c(-c2ccccc2)n1	2	.	1.6	.	.
CC(=O)/C(CN1CCCCC1)=N\O	0	-54	0.5	9	-1%
COc1ccc(Nc2nccc(-c3ccc(C#N)cc3)n2)cc1	-3	.	2.0	.	.
O=C(NC1CCCCC1)c1ccc(CS(=O)(=O)Cc2ccccc2F)o1	0	-5	1.1	5	-3%
Cc1ccc(NS(=O)(=O)c2ccc(CCC(=O)NC3CC3)cc2)cc1	-2	-32	.	6	-2%
CCCN(CCC)S(=O)(=O)c1ccc(NC(=O)C2CCCO2)cc1 (stereo not drawn)	-5	-19	7.8	0	-1%
CC(C)n1nc(C(=O)NCc2ccc3c(c2)OCO3)c2ccccc2c1=O	-5	.	2.3	0	-4%
CCCN1CCN(C(=O)CCCn2c(C)c3cnn(-c4ccccc4)c(=O)c3c2C)CC1	4	-5	1.6	-3	1%	Arbovirus inh repeat=2
CC(C)(C)OC(=O)NCCCCCNC(=O)c1[nH]cnc1C(=O)N[C@@H](Cc1ccccc1)C(=O)OCc1ccccc1	-5	.	8.4	-19	-5%
CCOC(=O)Cc1csc(NC(=O)/C=C/c2cccc(Br)c2)n1	10	.	-0.5	8	0%
CC(Sc1nc(-c2ccccc2)cc(=O)[nH]1)C(=O)O (stereo not drawn)	2	-46	2.4	8	-1%
O=C(Nc1ccc(Cl)cc1)C1CCCN(c2ncnc3c2nc2n3CCCCC2)C1 (stereo not drawn)	99	.	1.6	.	.
COC(=O)c1ccc(NC(=O)Nc2ccc3c(c2)nc(C)n3C)cc1	-1	.	-4.4	-4	0%
CCn1nc(NC(=O)CC(C)C)c2cc3ccc(C)cc3nc21	6	.	-39	.	.
O=C(Cc1cccs1)Nc1ccc(F)c(F)c1	2	.	1.3	.	.
O=C(NCCn1cccn1)C1CCC(=O)N(CCc2ccc(Cl)cc2)C1 (stereo not drawn)	4	.	-0.8	.	.
O=C(CN1C(=O)NC2(CCCC2)C1=O)OCCOc1cccc(Br)c1	-14	.	2.5	.	.
CC(=O)NCCc1cc2ccc(C)cc2[nH]c1=O	5	-3	-0.1	3	.

Next part, starting with the last four of the part before.
SMILES	Mtb betalactam	YopH PTP inh	RecA splice inh	Arbovirus inh	Mtb growth	others
O=C(Cc1cccs1)Nc1ccc(F)c(F)c1	2	.	1.3	.	.
O=C(NCCn1cccn1)C1CCC(=O)N(CCc2ccc(Cl)cc2)C1 (stereo not drawn)	4	.	-0.8	.	.
O=C(CN1C(=O)NC2(CCCC2)C1=O)OCCOc1cccc(Br)c1	-14	.	2.5	.	.
CC(=O)NCCc1cc2ccc(C)cc2[nH]c1=O	5	-3	-0.1	3	.
O=C(CS(=O)(=O)c1ccccc1)N(CCCN1CCOCC1)c1nc2c(F)cccc2s1	-7	.	-0.5	.	.
CCC1(CC)NC(=O)N(Cc2nc3ccccc3s2)C1=O	-9	.	-0.1	10	-3%
Cc1cc(C)nc(SCc2cc(=O)c(OC(=O)c3cccc([N+](=O)[O-])c3)co2)n1	9	-25	4.7	-9	6%
CN(C)S(=O)(=O)c1ccc(C(=O)Nc2ccc(CCC(=O)N3CCCC3)cc2)cc1	.	-15	-4.0	-1	-6%
COc1ccc(F)cc1S(=O)(=O)Nc1ccc2c(c1)OCCO2	-12	-30	0.8	5	-11%	Arbovirus inh repeat=2
CCCCc1cc(=O)oc2cc(OCc3cc(OC)c(OC)c(OC)c3)c(Cl)cc12	12	-19	-0.8	-12	-7%
COC(=O)c1[nH]c2ccc(Cl)cc2c1NC(=O)CCN1CCN(C2CCCCC2)CC1	-6	-17	0.6	6	-1%
COc1ccccc1N(CC(=O)NC1CCCCC1)C(=O)c1csnn1	-9	3	-1.1	-1	-2%
CCOC(=O)c1c(NC(=S)NNS(=O)(=O)c2ccc(Br)cc2)sc2c1CCCCC2	-4	.	1.0	.	.
CCCCCCC(C)n1[nH]c(=O)c2c(C)cc(C)nc21 (stereo not drawn)	-1	.	-0.5	.	-2%
CCn1c(=O)cc(SCC(=O)N2CCN(Cc3ccc4c(c3)OCO4)CC2)c2ccccc21	4	-36	2.0	-10	2%
Cn1c2c(c(=O)n(C)c1=O)C(CC(=O)Nc1ccccc1F)C(=O)N2 (stereo not drawn)	-3	.	-0.6	.	-5%
N#C/C(=N\Nc1ccc(S(=O)(=O)N2CCCCCC2)cc1)C(N)=S	3	.	8.6	7	-2%
COc1ccccc1N1CCN(C2CCCN(C(=O)c3cc(C4CC4)on3)C2)CC1 (stereo not drawn)	4	.	2.2	.	.
CCCCOc1ccc(C(=O)O)cc1	10	8	-1.4	9	3%
C/C(N)=C(/C#N)C(=O)COC(=O)CC12CC3CC(CC(C3)C1)C2	-1	-19	-0.5	7	-12%
COc1ccc(-n2c(=O)/c(=C\c3cccs3)s/c2=C(/C#N)C(=O)N2CCN(C)CC2)cc1	-1	.	2.6	3	5%
O=C(NCc1ccco1)C(=O)NCC1OCCN1S(=O)(=O)c1ccccc1 (stereo not drawn)	3	-24	0.2	1	-1%
Cc1ccc(-n2c(=O)[nH]cc(C(=O)N3CCc4ccccc43)c2=O)cc1C	-4	-54	-1.1	4	1%
O=C(CSc1nc(=O)n2ccccc2n1)NCCc1ccccc1	-3	.	-2.0	.	.
O=C(NNc1c2ccccc2nc2ccccc12)C(O)c1ccccc1 (stereo not drawn)	-4	.	-15	.	-4%
CC1CCN(C(=O)NC(=O)c2ccccc2)CC1	3	.	-0.8	.	.
CC(OC(=O)c1cc(Br)ccc1O)C(=O)NC1(C#N)CCCCC1 (stereo not drawn)	-15	.	0.7	.	.
CSc1ccccc1NC(=O)C1CC(c2c(F)cccc2Cl)=NO1 (stereo not drawn)	3	.	3.5	.	.
CC1(c2nnc(-c3cccc(Cl)c3)o2)CC(c2ccccc2F)=NO1 (stereo not drawn)	37	.	4.6	.	2%
CCOC(=O)C1CCN(S(=O)(=O)c2cc(C(=O)OC)n(C)c2)CC1	-3	.	2.0	.	.
Cc1cc(=O)n2nc(N3CCCC(C(=O)NCc4ccc5c(c4)OCO5)C3)sc2n1 (stereo not drawn)	-16	-32	0.5	0	-9%
COC(=O)c1ccc(Cl)c(NS(=O)(=O)c2ccc3c(c2)OCCO3)c1	-5	-53	-16	-12	-7%
NC(=O)c1c(NC(=O)c2cnccn2)sc2c1CCCC2	-1	.	-0.5	-1	2%
CCOC(=O)c1c(C)[nH]c(C(=O)OC(C)C(=O)NCc2ccccc2)c1C (stereo not drawn)	-1	.	-1.7	.	.
N/C(Cc1ccc(Cl)cc1)=N\OC(=O)c1cccc2ccccc12	5	-39	16	10	2%
C(=N\NC(=Nc1ccccc1)c1ccccn1)/c1ccccn1	7	-12	-1.9	-33	-3%
COCCCN(Cc1cccs1)S(=O)(=O)c1c[nH]c(C(=O)OC)c1	-2	.	-1.4	.	.
CC1=NN(c2cccc(C(=O)O)c2)C(=O)/C1=C\C=C/c1ccccc1	.	.	.	-7	0%
CC1CCCN(C(=O)CCS(=O)(=O)c2ccc3c(c2)NC(=O)C(C)S3)C1 (stereo not drawn)	-12	.	-1.9	.	.
COCCCNC(=O)Cn1cc(/C=C(\C#N)C(=O)NC2CC2)c2ccccc21	1	.	-3.7	.	.
CN(C)c1ccc(C(=O)c2ccc(N(C)C)c(N)c2)cc1N	5	8	-3.5	-16	0%
NS(=O)(=O)c1ccc(CCNC(=O)CN2CCN(Cc3cccc4ccccc34)CC2)cc1	-2	.	-0.5	.	.
O=C(COC(=O)/C=C/c1ccc(F)cc1)Nc1cc(C(F)(F)F)ccc1N1CCOCC1	-1	-8	-1.4	2	2%
C=C(C)[C@@]12OC3(c4ccccc4)O[C@@H]1C1[C@@H]4O[C@]4(CO)[C@@H](O)[C@]4(O)C(=O)C(C)=C[C@H]4[C@@]1(O3)[C@H](C)[C@H]2OC(=O)/C=C/C=C/c1ccccc1 (stereo partly drawn)	50	.	-1.6	.	?
Brc1cc2c(cc1COc1ccc(-c3nn[nH]n3)cc1)OCO2	3	25	1.4	4	2%
CCOC(=O)c1ccc(NC(=O)CSc2nc(=O)n(CCN3CCOCC3)c3c2CCC3)cc1	-7	.	0.9	.	.
CCOC(=O)N1CCN(c2c(N3CCN(c4ccccn4)CC3)c(=O)c2=O)CC1	-5	-26	.	-4	2%
NS(=O)(=O)c1ccc(NC(=S)N2CCN(c3ccccc3Cl)CC2)cc1	7	5	-0.4	0	2%
c1ccc(SCCOCCn2cncn2)cc1	-2	42	-0.4	8	-6%
CC1CCCN(S(=O)(=O)c2ccc(Br)s2)C1 (stereo not drawn)	11	-15	10	-10	2%
COCCCNC(=O)CN1C(=O)COc2ccc(S(=O)(=O)N3CCCCCC3)cc21	2	.	1.6	.	.
CCOP(=O)(Cc1ccc(C(C)(C)CC(C)=O)o1)OCC	-3	.	-0.1	.	-12%
CC(C)C(=O)NNS(=O)(=O)c1ccccc1	-3	.	-1.0	3	0%
COCCCNC(=S)N(Cc1ccccc1)Cc1nc2ccccc2c(=O)[nH]1	-4	-32	-5.0	7	-8%
NS(=O)(=O)c1ccc(CCNC(=O)C2CCCN2S(=O)(=O)c2cccc3nsnc23)cc1 (stereo not drawn)	-5	.	8.6	.	.

Copied from the listing, 4 compounds:
SMILES	Mtb betalactam	YopH PTP inh	RecA splice inh	Arbovirus inh	Mtb growth	others
CCOP(=O)(Cc1ccc(C(C)(C)CC(C)=O)o1)OCC	-3	.	-0.1	.	-12%
CC(C)C(=O)NNS(=O)(=O)c1ccccc1	-3	.	-1.0	3	0%
COCCCNC(=S)N(Cc1ccccc1)Cc1nc2ccccc2c(=O)[nH]1	-4	-32	-5.0	7	-8%
NS(=O)(=O)c1ccc(CCNC(=O)C2CCCN2S(=O)(=O)c2cccc3nsnc23)cc1 (stereo not drawn)	-5	.	8.6	.	.
